Bioassay records: PubChem, several laboratories
Yeast UUG start = yeast start codon fidelity modulation | 0.13% of 350,000 active | activity score, % at 18.7 µM | S. cerevisiae UUG-firefly luciferase reporter, luminescence/redox ratio;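 active = replicate mean at a twofold rise or more, about +100% in these data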;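 note: firefly luciferase made from a UUG start codon reports start codon fidelity; reporter light over untreated wells divided by growth signal over untreated wells; some hits fall short of that in this replicate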
eIF4H inh = inhibitors of RNA binding by human eIF4H | eIF4H fluorescence polarization binding assay | 0.94% of 290,000 active | Q15056 | inhibition, % at 35 µM | AID 2012;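 active = 50% or more with normal probe brightness, or confirmed in later tests; inconclusive = above 50% with abnormal brightness, or retests that disagree; inactive = below 50% or failed in later tests; about a fifth of its hits are not listed in these tables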;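 note: calls also rest on retests at 20 µM and on dose response follow-up; 0% = protein and probe with vehicle and 100% = probe without protein; strong numbers were not always called active; many hits fall short of the cut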
PABP polyA inh = blocks human PABP binding to poly(A) RNA; P11940; fluorescence polarization; inhibition, % at 35 µM; 1% of 290,000 active;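 active = 50% or more with normal probe brightness, or confirmed in later tests; inconclusive = above 50% with abnormal brightness, or retests that disagree; inactive = below 50% or failed in later tests; about a fifth of its hits are not listed in these tables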;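 note: calls also rest on retests at 20 µM and on dose response follow-up; controls were probe without protein and protein plus probe with vehicle; some compounds called inactive have numbers as strong as hits; many hits fall short of the cut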
Target sequence (P11940 whole entry, looked up): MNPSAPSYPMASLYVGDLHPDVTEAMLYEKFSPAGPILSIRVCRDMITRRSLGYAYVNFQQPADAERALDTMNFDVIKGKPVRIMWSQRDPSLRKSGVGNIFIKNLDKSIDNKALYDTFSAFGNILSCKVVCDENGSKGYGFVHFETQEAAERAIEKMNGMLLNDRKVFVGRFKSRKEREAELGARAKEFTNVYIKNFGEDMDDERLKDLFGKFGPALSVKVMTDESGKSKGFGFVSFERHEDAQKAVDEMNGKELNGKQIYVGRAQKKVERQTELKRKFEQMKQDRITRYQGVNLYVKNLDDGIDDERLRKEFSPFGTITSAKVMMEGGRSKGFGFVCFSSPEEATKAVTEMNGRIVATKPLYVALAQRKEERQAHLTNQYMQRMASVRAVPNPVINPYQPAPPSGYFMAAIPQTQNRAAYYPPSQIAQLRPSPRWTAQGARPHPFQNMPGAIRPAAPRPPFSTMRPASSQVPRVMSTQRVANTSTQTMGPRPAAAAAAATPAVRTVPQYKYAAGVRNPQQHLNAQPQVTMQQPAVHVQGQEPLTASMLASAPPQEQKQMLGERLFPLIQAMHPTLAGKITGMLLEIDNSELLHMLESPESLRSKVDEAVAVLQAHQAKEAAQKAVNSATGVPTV
Rce1 inhib = yeast Ras-converting enzyme inhibition; Q03530; yeast membranes, quenched prenylated peptide cleavage fluorescence; calls only; 0.27% of 290,000 active; AID 2563;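 active = fall in fluorescence gain of 50% or more versus controls, with final raw signal at or below 3038400; inconclusive = same 50% fall but final raw signal above 3038400; inactive = fall in fluorescence gain under 50%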;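 note: plate controls were neutral control wells for no effect and wells lacking membranes for full effect; tested at 10 µM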
MT1-MMP act inh = MT1-MMP (human) activation inhibition | P50281 | HT1080 RFP-PRO-GFP cells, GFP/RFP ratio fluorescence, overnight; percent of plate control window, DMSO zero | GFP/RFP ratio change, % at 20 µM | 0.061% of 360,000 active | AID 651647;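 active = GFP/RFP ratio change of at least 30% with cell ATP level not reduced by more than half and red fluorescence within 50% of control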; note: strong numbers were not always called active
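Assay system: HT1080 cells carrying an RFP-PRO-GFP reporter | Dosing: Single dose of 20 µM compound, 1% DMSO final | Incubation: Cells overnight before dosing, compound overnight, 37 °C, 5% CO2 | Evaluation: GFP/RFP fluorescence ratio | Control set: DMSO and RFP-L50D-GFP cell wells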
CSC inhib = blocks cancer stem cells | inhibition, % at 7.5 µM | cancer stem cell-like cells viability, luminescence | 1.1% of 300,000 active;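 active = mean at 75% or more and at least half the replicates too; inconclusive = mean and replicates disagree; tested in HMLE shEcad cells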;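 note: 0% = median of negative and 100% = median of positive control wells; the first replicate is given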
Env fusion inh = inhibitors of HIV Env-mediated cell fusion; HeLa-JRFL Env/CEM21 cell fusion, luciferase; inhibition, % at 12.3 µM; 1.1% of 360,000 active; AID 651610;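 active = mean replicate inhibition score of at least 50 and every replicate individually at or above 50; inconclusive = only one of the two criteria met; inactive = mean below 50 and not all replicates reaching 50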;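 note: 0% = plate neutral controls and 100% = maraviroc near 300 nM; one replicate is shown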
MT1-MMP act inh RFP = also measured in MT1-MMP act inh; calls as there; RFP signal change, %; measured here: RFP expression control read;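 0 = vehicle wells; hits needed this value within 50% of zero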
Starred values were filed as active, the others as inactive; i = inactive; u = inconclusive; x = no result given; & = joins results of further samples.

Values in the order: Yeast UUG start | eIF4H inh | PABP polyA inh | Rce1 inhib | MT1-MMP act inh | MT1-MMP act inh RFP | CSC inhib | Env fusion inh
CCN(CC)S(=O)(=O)c1cc(NC(=O)NCCCl)ccc1C
→ x | -10 | 6 | i | -1 | 0 | 2 | -3
CC1CCCC(NC(=O)c2ccc3c(SCC(=O)O)c4c(nc3c2)CCC4)C1C (configuration not stated)
→ -10 | 4 | 0 | i | 8 | 6 | 8 | 1
COc1ccc(NC(=O)CN(C)C(=O)c2c(-c3ccccc3Cl)noc2C)cc1
→ x | x | x | i | -1 | 2 | -15 | -7
COc1ccc(/C(C)=N/Nc2ccc(F)cc2F)c(O)c1
→ 2 | -4 | 1 | i | -1 | -1 | 6 | -20
COc1cc(C(=O)NCCCN2CCCC2=O)cc(Br)c1OCc1ccccc1
→ 51 | x | x | x | -6 | 0 | -8 | 11
N#CC1=C(N)Nc2nc3ccccc3n2C1c1ccc(F)cc1 (configuration not stated)
→ x | -3 | 2 | i | 3 | -6 | 17 | x
O=C(O)CNC(=O)c1ccc(Sc2ccccc2)c([N+](=O)[O-])c1
→ x | -4 | 4 | i | 1 | 11 | 0 | -4
COC(=O)Nc1ccc(S(=O)(=O)N2CCC(C(=O)N(C)C3CCCCC3)CC2)cc1
→ -8 | -1 | 2 | i | -2 | -2 | -38 | -11
CCn1c(CN2CCOCC2)nnc1SCC(=O)Nc1ccccc1Cl
→ -18 | 2 | 5 | i | 2 | 6 | x | -12
O=C(N/N=C\c1cccnc1)c1ccc(Cl)s1
→ -5 | -1 | 2 | i | -4 | 0 | -9 | -21
CN(C)/C=C1/C=C(c2ccccc2)OC1=O
→ 5 | 2 | -2 | i | -5 | 3 | 26 | x
CCOC(=O)/C(=C\C=C1/Sc2cc(OCC)c(OCC)cc2N1CC)C(C)=O
→ 43 | u | -9 | i | -135 | 16 | 4 | -79
CCOC(=O)C(C(=O)OCC)C(C)C#CCN1CCCCC1 (configuration not stated)
→ 7 | -4 | 2 | i | -1 | 2 | 1 | x
CCN1C(=O)CC(C(=O)Nc2ccc(F)cc2)SC1=Nc1ccc2c(c1)OCO2 (configuration not stated)
→ -18 | -2 | 0 | i | -2 | -2 | 1 | x
CC(C)NC(=O)NC(=O)CSc1nncn1C
→ -27 | -6 | -6 | i | 1 | 0 | 2 | -23
O=C(CCCSc1nnc(Nc2ccccc2F)s1)N1CCOCC1
→ -15 | -10 | -6 | i | 2 | -1 | -10 | -7
CCCN(CC(=O)Nc1ccccc1OC)C(=O)C1CCCC1
→ -19 | x | x | i | 5 | -2 | -12 | 9
O=C(Nc1ccncc1)C1CC(=O)N(c2ccc(F)cc2)C1 (configuration not stated)
→ -7 | 2 | 7 | i | -3 | -3 | -5 | -11
Cc1cnc(C2OCCO2)c2cccc([N+](=O)[O-])c12
→ -26 | x | x | x | -7 | 2 | x | 3
O=Cc1c(Nc2cccc(C(F)(F)F)c2)nc2ccccn2c1=O
→ -11 | -2 | 7 | i | -2 | 3 | x | 7
Clc1ccc2c(c1)CCc1cccnc1C2=C1CCNCC1
→ 1 | -4&-4 | 5&0 | i | x | x | x | x
O=C(COC(=O)/C=C/c1ccc(S(=O)(=O)N2CCOCC2)cc1)NCc1ccccc1
→ 3 | 2 | -5 | i | 5 | 6 | 15 | -14
CCOc1cc(/C=N/NC(=O)C(C)Sc2ccccn2)ccc1O (configuration not stated)
→ x | -4 | 2 | i | 4 | 2 | -3 | 4
COc1ccc(OC)c(C(=O)COC(=O)C(CCSC)NC(=O)COc2ccccc2)c1 (configuration not stated)
→ x | x | x | i | 6 | -1 | x | -5
Cc1cccc(N2CCN(C(=O)CN(C)S(=O)(=O)c3ccc4c(c3)CCC(=O)N4)CC2)c1C
→ -7 | 3 | -9 | i | -3 | -10 | -1 | 4
O=[N+]([O-])c1nn(-c2ccc3c(c2)OCCO3)n(O)c1=NCc1ccc(F)cc1
→ 4 | 1 | -9 | i | 4 | 4 | -4 | x
Cc1cc(OCCOCCN(C)C)ccc1Cl
→ x | -5 | 0 | i | 7 | 11 | 6 | -2
CCCN=C1N(C)C[C@@H]2[C@@H]3C(=O)N(C)C(=O)[C@@H]3[C@](CC)(C(=O)OC)N12
→ 1 | x | x | x | 5 | 4 | x | -25
Cc1ccc(-n2c(Cc3noc4ccccc34)n[nH]c2=S)cc1
→ -18 | -2 | 6 | i | 6 | 2 | -11 | -15
CS(=O)(=O)Nc1ccccc1C(=O)NCCSc1ccccc1
→ -1 | -5 | -6 | x | 0 | 0 | -12 | 0

Shown with each value named: 4 of the compounds above.
> CCCN(CC(=O)Nc1ccccc1OC)C(=O)C1CCCC1
  Yeast UUG start = -19
  eIF4H inh = x
  PABP polyA inh = x
  Rce1 inhib = i
  MT1-MMP act inh = 5
  MT1-MMP act inh RFP = -2
  CSC inhib = -12
  Env fusion inh = 9
> O=C(Nc1ccncc1)C1CC(=O)N(c2ccc(F)cc2)C1 (configuration not stated)
  Yeast UUG start = -7
  eIF4H inh = 2
  PABP polyA inh = 7
  Rce1 inhib = i
  MT1-MMP act inh = -3
  MT1-MMP act inh RFP = -3
  CSC inhib = -5
  Env fusion inh = -11
> Cc1cnc(C2OCCO2)c2cccc([N+](=O)[O-])c12
  Yeast UUG start = -26
  eIF4H inh = x
  PABP polyA inh = x
  Rce1 inhib = x
  MT1-MMP act inh = -7
  MT1-MMP act inh RFP = 2
  CSC inhib = x
  Env fusion inh = 3
> O=Cc1c(Nc2cccc(C(F)(F)F)c2)nc2ccccn2c1=O
  Yeast UUG start = -11
  eIF4H inh = -2
  PABP polyA inh = 7
  Rce1 inhib = i
  MT1-MMP act inh = -2
  MT1-MMP act inh RFP = 3
  CSC inhib = x
  Env fusion inh = 7

The list goes on:
Values in the order: Yeast UUG start | eIF4H inh | PABP polyA inh | Rce1 inhib | MT1-MMP act inh | MT1-MMP act inh RFP | CSC inhib | Env fusion inh
FC(F)(F)c1ccc(/C=N/n2c(COc3ccccc3)n[nH]c2=S)cc1
→ -21 | -13 | -7 | i | 1 | 3 | 38 | 19
CN(C)S(=O)(=O)c1cccc(NC(=O)COC(=O)c2cccn2C)c1
→ x | -6 | -6 | i | 3 | 1 | -10 | 4
CNC(=O)/C(=C\c1cccc(Oc2ccccc2)c1)NC(=O)c1ccccc1
→ x | -3 | -3 | i | 1 | 0 | x | -25
COc1cccc(-c2cnc(C(O)c3ccccc3)[nH]2)c1 (configuration not stated)
→ -34 | x | x | x | 2 | 1 | x | 5
Brc1ccccc1-c1nnc2sc(-c3ccc4c(c3)OCCO4)nn12
→ x | 12 | 2 | i | -10 | -10 | 52 | 47
Cc1ccc(N2CC(C(=O)NC3CC3)CC2=O)cc1Cl (configuration not stated)
→ -7 | -5 | 1 | i | -3 | -6 | -8 | 1
O=C(COC(=O)c1cc(S(=O)(=O)N2CCOCC2)ccc1F)NCc1ccc2c(c1)OCO2
→ -14 | x | x | x | 1 | 1 | -11 | 3
O=C(Nc1ccc(F)c(Cl)c1)c1ccc2sc([C@H]3C[C@H](O)[C@@H](CO)O3)nc2c1
→ -17 | x | x | x | 1 | -21 | x | 44
Cc1ccc(NC(=O)CNC(=O)c2ccco2)cc1Cl
→ -19 | -4 | 9 | i | 0 | 1 | -7 | 7
Cc1cc(NS(C)(=O)=O)c(=O)n(Cc2cccc(F)c2)c1
→ -10 | 3 | 0 | i | -11 | 3 | x | -1
O=C(COc1ccc(S(=O)(=O)N2CCCCC2)cc1Cl)N1CCOCC1
→ 6 | 6 | 4 | i | -1 | 0 | 0 | -4
CCC(C(=O)OCC(=O)N(C)c1c(N)n(Cc2ccccc2)c(=O)[nH]c1=O)c1ccccc1 (configuration not stated)
→ -11 | x | x | i | 1 | 6 | -4 | x
COc1cc(OC)cc(N(C(=O)CNC(=O)c2cccs2)C(C(=O)NCC2CCCO2)c2ccccc2)c1 (configuration not stated)
→ -10 | -4 | 3 | i | -2 | 0 | -14 | -5
Cc1ccc(-c2noc(CCCc3ccccc3)n2)cc1
→ 0 | -1 | 7 | i | -3 | 1 | -3 | x
Cc1cc(NC(=O)c2ccc(Br)c([N+](=O)[O-])c2)no1
→ 1 | -1 | 5 | i | 0 | -5 | -7 | -12
Cc1ccc(Nc2nnc(SCc3cc(=O)n4ccsc4n3)s2)c(C)c1
→ -13 | -1 | 22 | i | -4 | -4 | -11 | -55
COc1ccc(/C(N)=N/OC(=O)c2ccc3c(c2)OCO3)cc1OC
→ -4 | 4 | 8 | i | 13 | 1 | x | x
COc1ccc(NC(=O)Nc2cccc3c2O[C@H](CN(C)S(=O)(=O)c2c(C)noc2C)[C@@H](C)CN([C@H](C)CO)C3=O)cc1
→ 2 | x | x | x | 1 | 6 | -16 | -47
COc1ccc(/C(C)=N\NC(=O)CNC(=O)C(c2ccccc2)c2ccccc2)cc1OC
→ -12 | -8 | -2 | i | 2 | 2 | -14 | -2
COc1c(Cl)cccc1-c1cn2ccccc2n1
→ x | -4 | 15 | i | 4 | 1 | 30 | -275
CCOc1c(Cl)cc(CNCc2ccccn2)cc1OC
→ -21 | -6 | -9 | i | 1 | 1 | 4 | -18
N#Cc1ccccc1NC(=O)c1ccc(-c2ccccc2Cl)o1
→ -11 | -9 | -8 | i | 9 | -1 | x | x
CN1C(=S)SC(N(O)C(=O)Nc2cccc3ccccc23)C1(C)C (configuration not stated)
→ -5 | 5 | 9 | i | 2 | 7 | 18 | x
CCOC(=O)C1=C(COC(=O)COc2ccc(C(C)=O)cc2)NC(=O)NC1C (configuration not stated)
→ x | x | x | i | 10 | 1 | 0 | -27
COc1cc(C(=O)OCCNC(=O)c2ccncc2)cc(OC)c1OC
→ x | -4 | 41 | i | 4 | 6 | -1 | 18
O=C(CN1C(=O)NC2(CCc3ccccc32)C1=O)NCc1ccc(F)cc1 (configuration not stated)
→ -7 | x | x | x | 5 | -2 | x | 5
O=C(CSc1nc2c(sc3ccccc32)c(=O)n1CCO)NCC1CCCO1 (configuration not stated)
→ -14 | -11 | -10 | i | 2 | 3 | -12 | -135
CSCCC(NS(=O)(=O)c1ccccc1F)C(=O)Nc1cccc(C)n1 (configuration not stated)
→ -20 | 0 | -2 | i | 3 | 7 | -7 | -4
Cc1ccc(C2=NS(=O)(=O)N(C)C(C(=O)NC3CCCCC3)=C2)cc1
→ -1 | -20 | -2 | i | -1 | 0 | -3 | 18

Among those listed so far, these have a cyano group:
Values in the order: Yeast UUG start | eIF4H inh | PABP polyA inh | Rce1 inhib | MT1-MMP act inh | MT1-MMP act inh RFP | CSC inhib | Env fusion inh
N#CC1=C(N)Nc2nc3ccccc3n2C1c1ccc(F)cc1 (configuration not stated)
→ x | -3 | 2 | i | 3 | -6 | 17 | x
N#Cc1ccccc1NC(=O)c1ccc(-c2ccccc2Cl)o1
→ -11 | -9 | -8 | i | 9 | -1 | x | x
